Screening data deposited in PubChem BioAssay by Fisher Drug Discovery Resource Center.
NPYLR7 ag = agonists of mosquito NPYLR7 receptor, primary screen, cell-based, Aedes aegypti, calcium fluorescence, mosquito biting behavior; Aedes aegypti neuropeptide Y-like receptor 7 (NPYLR7); HEK293T NPYLR7/Galpha15, GCaMP6s calcium fluorescence; activation, % at 10 µM; actives 0.15% (n = 270,000); AID 1259423, 2018; in the data active means activation above about 40%;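 further: 0% = vehicle and 100% = reference agonist at the receptor; some compounds past the cut are filed as inactive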
NPYLR7 ag max-min = further read-out of NPYLR7 ag, marked with its call; activation, %; measured here: Max-Min RFU normalised activation; some inactives read as strong as hits;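 span of the calcium signal over five minutes; 0% = vehicle and 100% = native peptide agonist; compound fluorescence can raise it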
* marks the source's active call; other numbers are inactive results; & = joins results of further samples.

Screening CCOC(=O)C1(C)CCN1C(=O)COCc1ccccc1 (centres undefined) returned NPYLR7 ag -5 and NPYLR7 ag max-min -10.
Screening CC(C)(C)c1cnc(Cn2cc(I)cn2)o1 returned NPYLR7 ag 9 and NPYLR7 ag max-min 3.
Screening CCN(Cc1ccco1)C(=O)c1cc2c(F)cc(Br)cc2[nH]1 returned NPYLR7 ag -2 and NPYLR7 ag max-min -5.
Cc1ccc(Cn2nnc3c(=O)n(Cc4ccc(Cl)cc4)cnc32)cc1 was read as NPYLR7 ag 6 and NPYLR7 ag max-min 9.
Cn1c(SCC(=O)NCCc2ccc(F)cc2)nnc1-c1cccnc1 was read as NPYLR7 ag 19 and NPYLR7 ag max-min 9.
CCOC(=O)c1cc(-c2ccc(F)cc2)n(C2CCN(S(=O)(=O)c3ccccc3OC(F)(F)F)CC2)n1 was read as NPYLR7 ag 22 and NPYLR7 ag max-min 7.
For CCOC(=O)C1CCN(C(=O)C2COC3(CCC(C)CC3)N2C(=O)c2ccc(F)cc2F)CC1 (centres undefined) the results were NPYLR7 ag -1 and NPYLR7 ag max-min 3.
For CCCn1c(=O)c2c(nc3n2C(C)C(C)=NN3CC(N)=O)n(C)c1=O (centres undefined) the results were NPYLR7 ag 8 and NPYLR7 ag max-min 10.
Screening Cc1nn(-c2ccccc2)c(Cl)c1C(=O)NCC1CCOC1 (centres undefined) returned NPYLR7 ag 5 and NPYLR7 ag max-min 3.
Cn1c(-c2cc3n(n2)CCCN(C(=O)C2C=CCN2)C3)nc2ccccc21 (centres undefined) was read as NPYLR7 ag 2 and NPYLR7 ag max-min 0.
`COCc1cc(C)nc(OCC(=O)N/N=C\c2cc(-c3ccccc3)n(-c3ccc(Br)cc3)c2-c2ccccc2)c1C#N` gave NPYLR7 ag -7 and NPYLR7 ag max-min 2.
For Cc1ccccc1Nc1nnc(C(C)(C)C)c(=O)[nH]1 the results were NPYLR7 ag -2 and NPYLR7 ag max-min -3.
For Cc1cc(F)ccc1NC(=O)CCC1CCCN(Cc2cccc3cccnc23)C1 (centres undefined) the results were NPYLR7 ag 2 and NPYLR7 ag max-min -1.
For C=CCOC(CN1CCN(C(=O)COCc2ccccc2)CC1)c1cccc(OC)c1 (centres undefined) the results were NPYLR7 ag -1 and NPYLR7 ag max-min 13.
Screening Cc1nc(SCC(=O)OC(C)(C)C)c2c3c(sc2n1)CCCC3 returned NPYLR7 ag 10&2 and NPYLR7 ag max-min 6&-2.
`O=C(NCCCn1ncc2ccccc21)c1cn(Cc2ccc(F)cc2)nn1` gave NPYLR7 ag 11 and NPYLR7 ag max-min 11.
`CC(C)(C)c1ccc(CC(=O)N2CCC2(C)C(=O)NS(=O)(=O)Cc2ccccc2)cc1` (centres undefined) gave NPYLR7 ag 4 and NPYLR7 ag max-min 3.
`Clc1cccc(CN2CCN(Cc3ncc[nH]3)CC2)c1` gave NPYLR7 ag 6 and NPYLR7 ag max-min 5.
Screening Cc1ccc2c(c1)CCN1C(=O)CN(S(=O)(=O)c3c(F)cc(F)cc3F)CC21 (centres undefined) returned NPYLR7 ag 33 and NPYLR7 ag max-min 30.
CC(C)c1nc(CN(C)C(=O)c2cc3ccccc3oc2=O)no1 was read as NPYLR7 ag -6 and NPYLR7 ag max-min -7.

A portion from further up, for reference:
For Cc1ccccc1Nc1nnc(C(C)(C)C)c(=O)[nH]1 the results were NPYLR7 ag -2 and NPYLR7 ag max-min -3.
For Cc1cc(F)ccc1NC(=O)CCC1CCCN(Cc2cccc3cccnc23)C1 (centres undefined) the results were NPYLR7 ag 2 and NPYLR7 ag max-min -1.

(continued)
O=C(NC1CC1)C1CCCN(C2CCN(c3noc(-c4ccccc4)n3)CC2)C1 (centres undefined) was read as NPYLR7 ag -3 and NPYLR7 ag max-min -5.
`CN(Cc1ccccc1N1CCOCC1)C(=O)Cn1nnc2ccccc2c1=O` gave NPYLR7 ag 6 and NPYLR7 ag max-min 2.
`COCc1cc(CN(C)c2cc(C(C)C)nc(C)n2)[nH]n1` gave NPYLR7 ag 2 and NPYLR7 ag max-min 2.
For CCOc1ccc(NC(=O)C2CCCN(S(=O)(=O)c3ccc(NC(=O)OC)cc3)C2)cc1 (centres undefined) the results were NPYLR7 ag -5 and NPYLR7 ag max-min -10.
COCC(=O)N1CCC(=O)N(Cc2ccccc2)Cc2cc(OC)ccc21 was read as NPYLR7 ag 28 and NPYLR7 ag max-min 37.
`CCC(C)C(NC(=O)Cc1c(C)nn(C)c1C)c1nc2ccccc2[nH]1` (centres undefined) gave NPYLR7 ag -2 and NPYLR7 ag max-min -3.
`CCN(Cc1ccc(F)cc1)C(=O)c1cc(-c2ccncc2)n[nH]1` gave NPYLR7 ag 27 and NPYLR7 ag max-min 17.
Cc1noc(C(C)S(=O)(=O)Cc2noc(C(C)(C)C)n2)n1 (centres undefined) was read as NPYLR7 ag 6 and NPYLR7 ag max-min 3.
COc1cccc(-c2cc(C(=O)N3CCC(Cc4ccccc4)CC3)n3nc(C(C)(C)C)cc3n2)c1 was read as NPYLR7 ag 9 and NPYLR7 ag max-min 8.
`CC1C(=O)N(c2ccc(F)c(Cl)c2)CCN1C(=O)Cc1ccccc1` (centres undefined) gave NPYLR7 ag -2 and NPYLR7 ag max-min 3.
Cc1ccn2c(F)c(C(=O)N3[C@@H]4CC[C@H]3CN(C)C(=O)C4)nc2c1 was read as NPYLR7 ag -1 and NPYLR7 ag max-min -2.
For CCOc1ccccc1CN1CCN(Cc2cnc(N(C)C)s2)CC1CCO (centres undefined) the results were NPYLR7 ag 2 and NPYLR7 ag max-min 2.
O=C(Cn1ncc2ccccc21)NCc1cccnc1Oc1ccccc1 was read as NPYLR7 ag 1 and NPYLR7 ag max-min 1.
`O=C(NN=Cc1ccc(O)c(O)c1)c1cc2ccccc2cc1O` gave NPYLR7 ag 13 and NPYLR7 ag max-min 8.
Screening Cc1nc(C(C)NC(=O)c2cnn(-c3ccccc3Cl)c2C)no1 (centres undefined) returned NPYLR7 ag 0 and NPYLR7 ag max-min -2.
`CC(C)(C)c1ccc(OCC(=O)Nc2cc(C(C)(C)C)nn2-c2ccc(C#N)cc2)cc1` gave NPYLR7 ag 20 and NPYLR7 ag max-min 25.
`CN(CCC#N)Cc1cccs1` gave NPYLR7 ag 20 and NPYLR7 ag max-min 13.
Screening COc1ccc2[nH]cc(CCNS(C)(=O)=O)c2c1 returned NPYLR7 ag 8 and NPYLR7 ag max-min 9.
CCc1nc2ccc(C(=O)Nc3cc(-c4ccccc4)ccc3OC)cn2c1N(CC)C(C)=O was read as NPYLR7 ag -3 and NPYLR7 ag max-min -10.
For CCOC(=NCCCc1ccccc1)NC(=O)c1ccc(F)cc1 the results were NPYLR7 ag -1 and NPYLR7 ag max-min 3.

4 compounds from above, ordered by length of the SMILES, lowest first.
For CCOC(=NCCCc1ccccc1)NC(=O)c1ccc(F)cc1 the results were NPYLR7 ag -1 and NPYLR7 ag max-min 3.
For CCOc1ccccc1CN1CCN(Cc2cnc(N(C)C)s2)CC1CCO (centres undefined) the results were NPYLR7 ag 2 and NPYLR7 ag max-min 2.
COCC(=O)N1CCC(=O)N(Cc2ccccc2)Cc2cc(OC)ccc21 was read as NPYLR7 ag 28 and NPYLR7 ag max-min 37.
For CCOc1ccc(NC(=O)C2CCCN(S(=O)(=O)c3ccc(NC(=O)OC)cc3)C2)cc1 (centres undefined) the results were NPYLR7 ag -5 and NPYLR7 ag max-min -10.

Continued.
Screening CC(NC(=O)c1scnc1Cl)c1ccccc1 (centres undefined) returned NPYLR7 ag -3 and NPYLR7 ag max-min -3.
`Cc1cc(SC(C)C(=O)NC2CCS(=O)(=O)C2)nc2c(C)cccc12` (centres undefined) gave NPYLR7 ag 4 and NPYLR7 ag max-min 8.
`O=C(Cc1ccccc1)Nc1c(-c2ccc(Cl)cc2)nc2ccccn12` gave NPYLR7 ag -14 and NPYLR7 ag max-min -6.
For COc1ccc(CNC(=O)CSc2nnc(C)n2C2CCCCC2)cc1 the results were NPYLR7 ag 0 and NPYLR7 ag max-min 12.
`Cc1nn2c(=O)[nH]c(SCC(=O)NCc3ccc(F)cc3)nc2c1-c1ccccc1` gave NPYLR7 ag 6 and NPYLR7 ag max-min 0.
For OCCN(CCO)c1ccc2cc(Br)ccc2n1 the results were NPYLR7 ag -1 and NPYLR7 ag max-min -1.
For Cc1cc(F)ccc1N1CCC(N2CCCC(N3CCN(c4ccccc4)CC3)C2)CC1 (centres undefined) the results were NPYLR7 ag 21 and NPYLR7 ag max-min 5.
Screening CCN1CCN(C(=O)c2cc(-c3ccc(Cl)cc3)n(-c3ccc(C)cc3)c2C)CC1 returned NPYLR7 ag 1 and NPYLR7 ag max-min 14.
`CCOCC(=O)N1CCCN(Cc2ccc(F)cc2)C(C(C)C)C1` (centres undefined) gave NPYLR7 ag 4 and NPYLR7 ag max-min 2.
For CN(Cc1nc2ccccc2c(=O)[nH]1)C(=O)c1n[nH]c(=O)c2ccccc12 the results were NPYLR7 ag 5 and NPYLR7 ag max-min 10.
For COc1ccc(/C=C/C(=O)Nc2cc(-c3onc4c3CCCC4)ccc2Cl)c(Cl)c1OC the results were NPYLR7 ag 3 and NPYLR7 ag max-min -1.
Screening CCOC(=O)c1ccc2c(c1)nc(SCc1ccccc1[N+](=O)[O-])n2CCc1ccc(OC)cc1 returned NPYLR7 ag 26 and NPYLR7 ag max-min 13.
O=C(Cn1nc(-c2cccs2)c2sc(N3CCCCC3)nc2c1=O)NCc1ccco1 was read as NPYLR7 ag -1 and NPYLR7 ag max-min -7.
Screening O=C(Cn1cccnc1=O)Nc1nc2cc(F)c(F)cc2s1 returned NPYLR7 ag 9 and NPYLR7 ag max-min 2.
Screening NCCCc1nc2ccccc2[nH]1 returned NPYLR7 ag 10 and NPYLR7 ag max-min 16.
`CCC(c1nc2ccccc2c(=O)n1-c1ccc(Br)cc1)N1CCN(S(=O)(=O)c2ccc(Br)cc2)C(C)C1` (centres undefined) gave NPYLR7 ag 14 and NPYLR7 ag max-min 20.
Cc1ccc(CN2CC(O)CN(C(=O)OCC(C)C)CC2=O)o1 (centres undefined) was read as NPYLR7 ag 1 and NPYLR7 ag max-min 8.
COc1ccc(N2C(=O)NC3CC2(C)Oc2ccc(Br)cc23)c(OC)c1 (centres undefined) was read as NPYLR7 ag 1 and NPYLR7 ag max-min 1.
Screening CCN(CC)c1c(-c2ccc(Cl)cc2)c2ccccc2[nH]c1=O returned NPYLR7 ag -7 and NPYLR7 ag max-min -8.
O=c1ccc(-c2ccc(Cl)cc2)nn1CCNS(=O)(=O)c1ccc(Cl)s1 was read as NPYLR7 ag -1 and NPYLR7 ag max-min -2.

Reprinted from the part before: 4 compounds, followed by the next part.
Cc1ccc(CN2CC(O)CN(C(=O)OCC(C)C)CC2=O)o1 (centres undefined) was read as NPYLR7 ag 1 and NPYLR7 ag max-min 8.
COc1ccc(N2C(=O)NC3CC2(C)Oc2ccc(Br)cc23)c(OC)c1 (centres undefined) was read as NPYLR7 ag 1 and NPYLR7 ag max-min 1.
Screening CCN(CC)c1c(-c2ccc(Cl)cc2)c2ccccc2[nH]c1=O returned NPYLR7 ag -7 and NPYLR7 ag max-min -8.
O=c1ccc(-c2ccc(Cl)cc2)nn1CCNS(=O)(=O)c1ccc(Cl)s1 was read as NPYLR7 ag -1 and NPYLR7 ag max-min -2.
CCn1cc(CN2CCCC(CCc3cccc(OC)c3)C2)cn1 (centres undefined) was read as NPYLR7 ag 4 and NPYLR7 ag max-min 2.
For COc1ccc(CN(C(=O)c2cccc(F)c2)C2CC2)cc1OS(=O)(=O)c1ccc(NC(C)=O)cc1 the results were NPYLR7 ag 1 and NPYLR7 ag max-min 7.
For O=c1c(-c2ccc(Br)cc2)[n+]([O-])c2ccccc2n1O the results were NPYLR7 ag 4 and NPYLR7 ag max-min -4.
CCc1ccc(C=NNC(=S)N=P(N2CCOCC2)(N2CCOCC2)C(C)(C)C)cc1 was read as NPYLR7 ag 9 and NPYLR7 ag max-min 7.
COc1ccc(-c2nc3ccccn3c2NC(=O)CC(C)CC(C)(C)C)cc1 (centres undefined) was read as NPYLR7 ag -4 and NPYLR7 ag max-min 3.
`CC(C)n1nccc1NC(=O)c1cc(S(=O)(=O)N2CCOCC2)c[nH]1` gave NPYLR7 ag 10 and NPYLR7 ag max-min 6.
Screening OCC1(Cc2ccccc2F)CCCN(Cc2ccc3ccccc3n2)C1 (centres undefined) returned NPYLR7 ag 5 and NPYLR7 ag max-min 3.
Screening O=P1(Nc2cccc3ccccc23)C=C(c2ccccc2)OC(c2ccccc2)=C1 returned NPYLR7 ag -2 and NPYLR7 ag max-min -4.
For C=CC(=O)N1CCCC(n2nc(-c3ccc(Oc4ccccc4)cc3)c3c(N)ncnc32)C1 (centres undefined) the results were NPYLR7 ag 1 and NPYLR7 ag max-min -5.
`O=C(NCCN1CCOCC1)c1cccc(C2CCNC2)c1` (centres undefined) gave NPYLR7 ag 10 and NPYLR7 ag max-min 4.
Screening Cc1ccc(-c2nc3c(Nc4cccc(O)c4)nccc3[nH]2)cc1 returned NPYLR7 ag -4 and NPYLR7 ag max-min -9.
Screening COc1ccc(N2C(=O)CC(N3CCN(C/C=C\c4ccccc4)CC3)C2=O)cc1 (centres undefined) returned NPYLR7 ag 1 and NPYLR7 ag max-min 0.
Oc1cccnc1NC(c1ccc(Br)cc1)c1ccc2cccnc2c1O (centres undefined) was read as NPYLR7 ag 0 and NPYLR7 ag max-min -1.

An excerpt, so the mix of outcomes need not match the whole.
